ELG1 genotox: genotoxicity induction in ELG1-luciferase HEK293T cells; HEK293T ELG1-luciferase reporter, luminescence, 16 h; Potency, µM (top dose mostly 46 µM), without a hit: top-dose activity change, positive = activation, actives largely listed as activators; AID 504466; 330,000 tested, 1.3% active; also: potency is read from the fitted curve at half-maximal effect; % of control where 0% means no effect; nearly all actives have a fitted effect of over 60% in size
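HEK293T cells expressing luciferase-tagged ELG1 were treated with compound or DMSO for 16 hr at 37°C. Luciferase activity was then read after 30 min with ONE-Glo at room temperature; rising signal flags genetic stress.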
Rab9 promoter act: activates the Rab9 promoter; Huh7 Rab9 promoter-luciferase reporter, luminescence, 24 h; Potency, µM (series often up to 9.22 µM), inactives show at the top dose activation, negative = inhibition, most hits filed as activators; 320,000 tested, 2.8% active; also: potency is read from the fitted curve at half-maximal effect; % of control where 0% means no effect; nearly all actives have a fitted effect of over 60% in size
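Using Huh7 cells stably transfected with Rab9 promoter–luciferase, compounds were incubated 24 h at 37 °C, 5% CO2; luciferase luminescence was read 10 min after reagent addition.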
Menin-MLL TR inh: menin-MLL binding inhibition, Texas Red mutant peptide; O00255; Potency, µM (highest dose often 61.6 µM), for the others: at the top dose FP activity change, negative = inhibition, actives largely listed as inhibitors; Menin + Texas Red MLL mutant peptide, fluorescence polarization; 270,000 tested, 0.23% active; active = well fitted inhibition curve with a large enough effect in the polarisation, with a control signal flat, not every such curve was filed as active; inconclusive = small, poorly fitted or top-dose-only effect, or effect the other way, or a change in a side signal; inactive = no such curve, though single readings can be large or run the other way; the % refers to the polarisation; also: potency is read from the fitted curve at half-maximal effect; % of control where 0% means no effect; many of its hits are not listed in these tables
FLuc counter: firefly luciferase modulation, counter-screen for miR-21 project. P08659. purified FLuc, Km substrates, luminescence inhibition. Potency, µM (doses to about 57.5 µM), for inactives: top-dose activity change, negative = inhibition, most hits filed as inhibitors. 360,000 tested, 6.9% active;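 also: potency is read from the fitted curve at half-maximal effect; plate controls were vehicle for no effect and reference inhibitor for full effect; nearly all actives have a fitted effect of over 55% in size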
Target sequence (P08659 whole entry, looked up): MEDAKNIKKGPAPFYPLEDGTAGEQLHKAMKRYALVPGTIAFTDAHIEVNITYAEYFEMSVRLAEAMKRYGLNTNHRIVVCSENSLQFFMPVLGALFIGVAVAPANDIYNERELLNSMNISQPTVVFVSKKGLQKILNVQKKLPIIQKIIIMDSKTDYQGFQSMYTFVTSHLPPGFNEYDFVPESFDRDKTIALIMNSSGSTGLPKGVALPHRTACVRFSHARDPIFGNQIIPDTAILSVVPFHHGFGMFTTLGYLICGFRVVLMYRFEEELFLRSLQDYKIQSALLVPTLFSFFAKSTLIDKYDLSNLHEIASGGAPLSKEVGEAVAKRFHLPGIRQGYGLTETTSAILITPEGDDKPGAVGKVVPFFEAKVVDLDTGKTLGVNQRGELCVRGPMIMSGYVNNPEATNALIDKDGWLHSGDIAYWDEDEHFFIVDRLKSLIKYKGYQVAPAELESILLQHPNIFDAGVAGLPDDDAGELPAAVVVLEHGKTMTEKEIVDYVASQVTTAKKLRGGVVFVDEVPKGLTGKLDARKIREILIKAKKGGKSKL
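Purified P. pyralis luciferase, 10 nM final, with Km-level 10 uM D-luciferin and 10 uM ATP in 50 mM Tris acetate pH 7.5, 10 mM Mg acetate, 0.01% Tween-20, 0.05% BSA; 6-point qHTS titration about 60 µM downward; luminescence read.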
p53 reactivator: re-activators of mutant p53. AID 504706. Potency, µM (titrated, usually from 92.2 µM), inactives show top-dose activity change, positive = activation, hits mostly activators. 320,000 tested, 0.063% active. H1299 p53-A138V BP100-luciferase reporter, luminescence, 24 h; also: potency is read from the fitted curve at half-maximal effect; % of control where 0% means no effect; nearly all actives have a fitted effect of over 45% in size
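H1299 (p53-null), stable ts p53-A138V + BP100-Luc; 1000 cells/well, Opti-MEM/10% FBS; cpd 4 pt, 1:5; 24 h, 37 deg C, 5% CO2; detection reagent 10 min RT; luminescence.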
NPC1 promoter act: activators of NPC1 promoter; Huh7 NPC1 promoter luciferase reporter, 24 h; Potency, µM (doses to about 9.22 µM), for the others: at the highest dose activation, hits mostly activators; 320,000 tested, 2.4% active; AID 485313;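 also: potency is read from the fitted curve at half-maximal effect; % of control where 0% means no effect; nearly all actives have a fitted effect of over 60% in size; reporter is driven by a mutant NPC1 promoter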
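Huh7 cells stably carrying NPC1 promoter–luciferase, plated in Opti-MEM with 10% FBS for 2 h, were exposed to compound in DMSO for 24 h at 37 °C; luciferase reagent was added for 10 min and luminescence read.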
Giardia kill: Giardia lamblia killing. Giardia lamblia trophozoite viability. activity change, % at 7.66 µM, hits read low. 340,000 tested, 0.15% active; in the data active = activity change below about -80%; inconclusive = between about -30% and that limit;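 also: parasites exposed to compound for two days anaerobically before the ATP read; % is scaled to controls: 0 for no effect and ±100 for the full control effect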
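Media and compound were dispensed first, then trophozoites at 100 cells/well; plates sat 48 hrs at 37 deg C without oxygen before ATP luminescence reagent was added and read after 15-30 min at room temperature.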
BRCA1 expr up: increases BRCA1 expression; MCF7-BRCA1-FFLuc reporter, luminescence, 48 h; response scale: scaled: vehicle 0%, 10 µM genistein 100%; Potency, µM (series often up to 46.1 µM), for the others: top-dose activation, hits mostly activators; 380,000 tested, 1.1% active; AID 624202; also: potency is read from the fitted curve at half-maximal effect; nearly all actives have a fitted effect of over 80% in size; some results filed as inactive show a strong effect at the top dose
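Cells: MCF7-BRCA1-FFLuc, 2000/well. Exposure: 48 h, 37 °C, 5% CO2. Read: luminescence, 15 min post-substrate. Controls: genistein 10 microM (maximal activation), DMSO (neutral).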
RORg inh: ROR gamma (mouse) transcription inhibition | P51450 | Drosophila S2 Gal4-RORgamma UAS-luciferase reporter, 20 h | Potency, µM (series often up to 53.6 µM), without a hit: at the top dose activity change, negative = inhibition, most hits filed as inhibitors | 310,000 tested, 5.4% active | AID 2551; also: potency is read from the fitted curve at half-maximal effect; % is scaled to controls: 0 for no effect and ±100 for the full control effect; nearly all actives have a fitted effect of over 60% in size
Target sequence (P51450 whole entry, looked up, the tested form may be a part): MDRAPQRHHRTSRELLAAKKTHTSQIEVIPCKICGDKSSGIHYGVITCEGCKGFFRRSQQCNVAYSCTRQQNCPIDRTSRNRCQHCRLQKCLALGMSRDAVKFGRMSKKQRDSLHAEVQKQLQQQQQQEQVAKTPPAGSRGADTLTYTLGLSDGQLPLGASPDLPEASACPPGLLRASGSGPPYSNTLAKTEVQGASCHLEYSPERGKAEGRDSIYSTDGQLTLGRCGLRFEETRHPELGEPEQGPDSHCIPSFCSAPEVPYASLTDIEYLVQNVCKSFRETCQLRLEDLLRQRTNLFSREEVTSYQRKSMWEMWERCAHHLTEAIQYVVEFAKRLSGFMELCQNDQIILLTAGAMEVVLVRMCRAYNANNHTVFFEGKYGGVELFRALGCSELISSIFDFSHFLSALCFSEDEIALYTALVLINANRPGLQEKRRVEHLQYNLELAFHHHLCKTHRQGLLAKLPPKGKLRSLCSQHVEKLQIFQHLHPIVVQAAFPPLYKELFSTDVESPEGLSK
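Stably transfected Drosophila Schneider cells are the test system, with ROR gamma fused to Gal4 and luciferase under UAS control; luminescence is read after 20 hr of 700 uM copper sulfate induction at ambient temperature.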
Gal4-VP16 FLuc: counter-screen for ROR gamma inhibitors: Gal4-VP16 reporter. 310,000 tested, 3.5% active. Potency, µM (series often up to 53.6 µM), for the others: at the top dose activity, negative = inhibition, most hits filed as inhibitors. Drosophila S2 Gal4-VP16 UAS-luciferase, luminescence, 20 h;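 also: Gal4-VP16 expression switched on by copper sulfate through the metallothionein promoter; potency is read from the fitted curve at half-maximal effect; % is scaled to controls: 0 for no effect and ±100 for the full control effect; nearly all actives have a fitted effect of over 50% in size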
Starred values were filed as active, the others as inactive; ? = inconclusive; · = no result given; [ ] = dose if it differs, or a comment. Unless noted, calls follow the shape of the dose curve; as a rule, active = well fitted curve in the direction sought with a large enough effect; inconclusive = small, poorly fitted or top-dose-only effect, or another doubt; inactive = no such curve, though single readings can be large; an effect the other way counts as inactive or inconclusive. Not all compounds are listed; the hit share may differ from the screen's.

SMILES	ELG1 genotox	Rab9 promoter act	Menin-MLL TR inh	FLuc counter	p53 reactivator	NPC1 promoter act	Giardia kill	BRCA1 expr up	RORg inh	Gal4-VP16 FLuc
CC1(C)CC(NC2C3CC4CC(C3)CC2C4)CC(C)(C)N1 (stereo not drawn)	0.6%	-0.9%	·	4.8%	-1.1%	-2.5%	-9.5	-15.0%	21.7%	-9.6%
CC(=O)Nc1ccc(S(=O)(=O)N2CCC(C(=O)NCCC(=O)Nc3ccccc3)CC2)cc1	0.2%	7.5%	7.1%	0.6%	9.8%	1.6%	-6.5	0.0%	-5.9%	-7.1%
Cc1cc(C)cc(OCC(=O)NCC2CCCO2)c1 (stereo not drawn)	8.5%	-8.2%	6.8%	?	3.1%	-0.6%	-0.9	-10.2%	?	0.6%
COc1cccc(NC(=O)C2CC(=O)n3cnnc3S2)c1 (stereo not drawn)	1.3%	-0.7%	3.3%	-8.6%	-33.5%[inhibitor]	1.4%	-21.5	2.4%	?	?
Oc1c(Br)cc(Br)cc1C=Nc1ccc2c(c1)OCO2	1.6%	-1.8%	19.0%	1.3%	4.4%	0.3%	-16.4	-66.5%	17.8µM*	?
O=[N+]([O-])c1ccccc1S(=O)(=O)N1CCN(C2CCN(Cc3ccccc3)CC2)CC1	-2.5%	3.4%	·	1.2%	2.7%	-1.0%	-10.4	-25.6%	-1.9%	-0.2%
C/C(=N\O)C(=O)NCC1CCNCC1	-2.6%	2.2%	2.4%	7.1%	22.1%	2.6%	25.7	-2.1%	-11.6%	-0.5%
CCOC(=O)N/N=C/c1cn(Cc2ccc(F)cc2)c2ccccc12	-0.2%	-2.7%	·	3.5%	-2.1%	-1.6%	11.4	-59.7%	-7.9%	-4.5%
O=C(NC1CCCCC1)Sc1ccc(Cl)cc1	1.5%	-3.5%	-0.3%	-5.0%	8.2%	-1.5%	14.8	-29.4%	9.3%	-21.8%
O=C(c1ccccc1)C1CCN(C(=O)c2ccco2)CC1	4.9%	14.8%	·	2.3%	12.2%	2.8%	-7.2	20.8%	18.6%	-12.5%
COc1ccc(C(=O)N2CCOCC2)cc1Br	5.7%	2.2%	0.3%	-0.3%	1.9%	-1.1%	-6.0	4.3%	7.9%	10.1%
O=C(Nc1ccnn1C1CCN(CCCc2ccccc2)CC1)c1ccccc1	-2.7%	10.4%	·	-2.6%	10.4%	-5.4%	-27.2	-3.9%	-1.4%	-11.1%
CC(C)(C)Sc1ccc(/C=N/O)cc1[N+](=O)[O-]	-3.2%	-1.3%	41.4%[activator]	-18.6%	-2.9%	0.5%	42.2[activator]	-0.5%	-0.6%	8.2%[10 µM]
COc1ccccc1-c1nc2s/c(=C\c3cccs3)c(=O)n2n1	-2.8%	3.3%	59.7%[activator]	?	-7.6%	1.3%	6.2	-21.0%	?	-2.5%
CS(=O)(=O)N(CC(=O)N1CCN(c2ccccc2)CC1)c1cc(C(F)(F)F)ccc1Cl	-6.4%	-0.2%	·	6.9%	-1.2%	1.9%	14.1	7.3%	-1.5%	3.1%
O=C(Nc1ccc(F)cc1F)N1CCCN(c2ccc([N+](=O)[O-])cn2)CC1	-11.1%	-9.3%	·	-0.6%	-3.8%	-3.0%	-6.1	-7.1%	13.8%	-0.4%
COc1cc2ccccc2cc1C(=O)NC(=S)Nc1cccc(C(=O)O)c1C	9.7%	1.2%	·	-8.0%	0.2%	-1.7%	18.4	0.0%	3.7%	3.9%
CC1(C)C(=O)Nc2ccccc2N1C(=O)COC(=O)COc1ccc(C#N)cc1	0.8%	-2.8%	·	3.8%	4.0%	-5.1%	-13.0	-0.1%	-8.7%	1.7%
O=C(NCCN1C(=O)S/C(=C\c2ccc(F)cc2)C1=O)c1cccc(S(=O)(=O)N2CCOCC2)c1	-0.1%	?	1.5%	?	?	21.1%	1.8	46.4%	14.4%[10 µM]	-6.0%
CCOc1ccccc1OCCCC(=O)Nc1sccc1C(N)=O	-3.6%	-0.4%	?	-10.2%	14.7%	2.5%	0.5	-11.5%	?	-2.4%
Cc1ccc2nc(-c3ccccc3)cc(C(=O)O)c2c1	3.1%	0.0%	9.7%	12µM*	8.0%	10.4%	-19.1	16.5%	-7.9%	-0.6%
COc1ccc(OCCNC(=O)/C=C/c2ccc([N+](=O)[O-])cc2)cc1	-0.6%	-3.6%	-1.6%	?	0.9%	-1.0%	-3.4	-10.7%	38.7%	-1.3%
CC(C)[C@H]1C(=O)Nc2ccccc2N1C(=O)N[C@@H](Cc1ccccc1)C(=O)N[C@@H](C(=O)O)c1ccccc1	1.8%	-7.8%	2.6%	4.9%	9.8%	1.6%	-12.7	-7.8%	-20.8%	2.5%
Cn1c(COc2ccc([N+](=O)[O-])cc2)nnc1SCC(N)=O	0.0%	10.6%	-2.2%	-3.4%	-0.8%	-2.5%	-20.6	-6.1%	-9.5%	-11.9%
O=C(Nc1cccc(C(F)(F)F)c1)c1cc2ncc(Br)cn2n1	3.8%	-0.5%	?	-7.1%	2.7%	1.8%	-7.0	-3.3%	30.8%	4.5%
CC(NC(=O)c1ccccc1NS(C)(=O)=O)c1ccccc1 (stereo not drawn)	-1.4%	3.9%	-21.3%	-0.1%	0.6%	-0.2%	22.4	3.4%	70.3%	5.2%
Cc1ccc2nc(SCC(=O)O)nc(C)c2c1	0.7%	5.0%	?	-19.3%	0.1%	9.4%	-1.2	0.7%	-9.6%	5.5%
O=C1CC(N2CCC(c3nc4ccccc4[nH]3)CC2)C(=O)N1c1ccccc1F (stereo not drawn)	1.3%	-0.4%	-0.5%	1.2%	-4.3%	-8.2%	-7.0	13.2%	-5.8%	0.4%
CN1CCN(C(=O)/C(=C/c2ccccc2)c2ccccc2)CC1	-0.3%	-12.7%	3.6%	0.9%	4.7%	-2.9%	-3.5	-12.5%	-0.5%	-1.8%
O=C(Nc1ccncc1)Nc1ccc(Cl)cc1Cl	-7.3%	1.0%	13.7%	-15.6%	-11.3%	0.8%	-28.0	10.5%	54.8%	-2.5%
O=C(NNS(=O)(=O)c1ccc2ccccc2c1)C1CCN(Cc2ccccc2)CC1	0.1%	3.3%	·	-1.1%	-3.0%	-2.8%	1.3	1.8%	5.6%	-5.3%
CC1CCN(C(=S)SCc2nc(N)nc(Nc3ccccc3)n2)CC1	5.2%	0.8%	·	?	7.6%	1.3%	5.2	29.1%	-65.0%	6.4%
Cc1nnc(SCC(=O)Nc2cccc(S(=O)(=O)NC3=NCCCCC3)c2)n1Cc1ccccc1	-0.1%	-0.9%	1.7%	-3.4%	-4.2%	-2.0%	-12.2	-5.3%	15.4%	4.8%
O=C(OCCN1C(=O)c2ccccc2C1=O)c1ccc(S(=O)(=O)N2CCCCCC2)cc1	2.9%	-1.8%[1.84 µM]	8.1%	-0.2%	20.4%	-5.7%	-4.1	7.6%	1.5%	-1.6%
CN1C=CC(=CC=C2C=CC(=O)C=C2)C=C1	1.3%	-1.9%	2.9%	-0.4%	-3.5%	-4.4%	-18.2	3.8%	4.1%	0.7%
CCCCSc1nnc([C@@H](NC(=O)OC(C)(C)C)C(C)C)o1	-3.2%	0.8%	-17.2%	0.1%	-3.4%	1.3%	1.6	2.4%	40.9%	5.6%
CCC(=O)N(Cc1ccccc1)c1ccccn1	0.8%	1.5%	-6.1%	2.6%	-0.2%	-2.3%	2.4	-13.0%	-9.0%	2.7%
CCCCn1c(SCC(=O)NCCOC)nc2ccc(N3CCOCC3)cc2c1=O	-0.1%	-2.2%	5.2%	3.6%	1.9%	-6.4%	-6.5	-0.2%	?	-17.3%
O=C(Oc1cccc(N2C(=O)CCC2=O)c1)C1CC(=O)N(c2ccc(F)cc2)C1 (stereo not drawn)	-0.7%	-3.1%	0.8%	1.6%	2.9%	-2.7%	2.4	4.7%	-12.3%	-5.0%
COc1ccccc1NC(=O)Nc1ccc2c(c1)nnn2C	13µM*	3.16µM*	-6.5%	12µM*	11.7%	?	-16.4	95.3%	10.5%	0.2%
CCc1ccccc1N(CC(=O)N1CCc2ccccc2C1)S(C)(=O)=O	-4.9%	1.0%	-7.2%	-5.5%	-11.0%	4.3%	1.1	-2.3%	7.1%	29.9%
Brc1cccc(OCCn2ccnc2)c1	3.4%	-0.7%	-2.4%	1.7%	-2.1%	-0.4%	3.1	-30.1%	-16.6%	3.3%
Cc1ccc(OC(=O)N2CCOCC2)cc1	?	18.7%	-5.2%	?	16.7%	16.4%	1.8	90.8%	-12.8%	-3.7%
Cc1ccc(C)c(S(=O)(=O)N2CCCOC2CNC(=O)C(=O)NCc2ccncc2)c1 (stereo not drawn)	-5.4%	0.5%	1.7%	5.5%	0.7%	-3.0%	-16.0	-10.5%	12.8%	3.8%
CCCCn1c(SCC(=O)Nc2nnc(CC)s2)nc2c1c(=O)n(C)c(=O)n2C	-17.6%	-11.8%	1.0%	4.0%	7.7%	-9.3%	7.9	-88.9%[inhibitor]	12.3%	-0.2%
